CBX7 inh – blocks human CBX7 binding to H3K27me3 peptide. AID 1224903. normalised signal (fraction of DMSO) (concentration not given with the values). 66,000 compounds, 1.1% hits. AlphaScreen His6-CBX7 / biotin-H3K27me3 peptide binding; hits give low values; in the data active = normalised signal below about 0.5;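 note: 100 nL library stock added to about 20 µL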
Target sequence (O95931 whole entry, looked up): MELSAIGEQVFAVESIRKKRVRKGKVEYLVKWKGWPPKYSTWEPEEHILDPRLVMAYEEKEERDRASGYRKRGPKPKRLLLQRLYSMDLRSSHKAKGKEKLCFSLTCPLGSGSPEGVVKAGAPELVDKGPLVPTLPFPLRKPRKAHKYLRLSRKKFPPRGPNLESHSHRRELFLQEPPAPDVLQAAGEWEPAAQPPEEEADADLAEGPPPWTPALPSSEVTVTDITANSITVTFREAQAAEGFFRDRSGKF
CBX7 inh z-score – second read-out of CBX7 inh, no call of its own (marks repeat the call); z-score; measured here: z-score of CBX7 signal; some inactives read as strong as hits; reference of the scale not given here;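 same signal on another scale; lower means less binding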
The depositor's hits bear a star.

The line under a structure holds: CBX7 inh z-score | CBX7 inh
O=C(NCc1cccnc1)c1n[nH]c(=O)c2ccccc12
  0.89 | 1.1
O=C(Nc1ccc(Cl)cc1Cl)c1cccnc1Oc1ccc(Cl)cc1
  0.047 | 1
O=C(CCc1nc(-c2ccccc2F)no1)NC1CCCCCC1
  3 | 1.2
CCOC(=O)c1c(NC(=O)c2ccccc2F)sc(C)c1C
  4 | 1.1
Fc1ccc(-c2nnc3ccc(N4CCCCC4)nn23)cc1
  -0.38 | 0.98
Cc1ccc(-c2nc3ncccn3c2NC2CCCCC2)cc1
  -0.48 | 0.98
O=C(CSc1nc2ccccc2[nH]1)NC1CC1
  1.9 | 1.1
CC1CCN(C(=O)c2cnc(Nc3ccc(F)cc3)c3ccccc23)CC1
  1 | 1.1
CCOc1cc2c(cc1OCC)C(c1ccc(O)cc1)NCC2 (configuration not stated)
  0.23 | 1
O=C(Nc1nc2ccccc2s1)c1cc2c(s1)-c1ccccc1OC2
  3.6 | 1.1
COc1ccc(Cl)cc1NC(=O)C1(S(=O)(=O)c2ccc(Cl)cc2)CC1
  0.012 | 1
Cc1ccccc1NCc1nc2ccccc2n1CCOc1ccccc1C
  -0.49 | 0.97
Cc1ccc(C)c(NC(=O)Cn2cnc3c(nnn3Cc3ccc(F)cc3)c2=O)c1
  -2.4 | 0.85
CCN(CC)S(=O)(=O)c1ccc2[nH]cc(C(=O)NCc3ccc(OC)cc3)c(=O)c2c1
  1.8 | 1.1
O=C(NC1CCCCCCC1)c1ccc2c(c1)N(Cc1cccc(Cl)c1)C(=O)CS2
  0.47 | 1
COc1ccccc1Nc1nc(-c2cccc(N3C(=O)c4ccccc4C3=O)c2)cs1
  -3.4 | 0.78
Cc1ccc2cc(CCNC(=O)c3cccc(F)c3)c(=O)[nH]c2c1C
  2.4 | 1.1
CCOC(=O)c1c(NC(=O)CCN2CCCCCC2)sc2c1CCC(C)C2 (configuration not stated)
  -0.43 | 0.98
Cc1ncc(CO)c2cc(-c3nnc(Nc4ccccc4)s3)c(=O)oc12
  1 | 1.2
CCc1ccc(NC(=O)c2ccc(NS(=O)(=O)c3c(C)noc3C)cc2)cc1
  -0.0093 | 1
CS(=O)(=O)Nc1cc(-c2nnc(Nc3cccc(Cl)c3)c3ccccc23)ccc1N1CCOCC1
  -0.85 | 0.82
Cc1cccc(NC(=O)C2CCN(S(=O)(=O)c3cnc[nH]3)CC2)c1C
  0.1 | 1
CC1CC(C)CN(C(C(=O)NC2CCCCC2)c2ccccc2)C1 (configuration not stated)
  -5 | 0.8
COc1ccc(NC(=O)c2c[nH]n3c(=O)cc(C4CCNCC4)nc23)cc1Cl
  0.16 | 1
CCN(C(=O)CCc1nc(-c2ccccc2F)no1)c1ccc(C)c(C)c1
  0.091 | 1
O=C(Nc1ccncc1)C1CCCN(S(=O)(=O)c2cccc3cccnc23)C1 (configuration not stated)
  -0.12 | 0.91
O=S(=O)(Nc1ccc(-c2nc3ccccc3[nH]2)cc1)c1ccc(Cl)cc1
  -3.5 | 0.87
COc1ccc(N2CCN(CCCNC(=O)CN3C(=O)CCSc4ccccc43)CC2)cc1
  -9.3 | 0.8
COc1cccc(NC(=O)C2CC(=O)N(c3ccc(Br)cc3)C2)c1 (configuration not stated)
  -0.55 | 0.98
COc1ccc(NC(=O)CCN2CCN(Cc3ccccc3)CC2)cc1
  -1.5 | 0.94

A different layout for 4 compounds above.
COc1ccc(NC(=O)CCN2CCN(Cc3ccccc3)CC2)cc1
  CBX7 inh z-score = -1.5	CBX7 inh = 0.94
CS(=O)(=O)Nc1cc(-c2nnc(Nc3cccc(Cl)c3)c3ccccc23)ccc1N1CCOCC1
  CBX7 inh z-score = -0.85	CBX7 inh = 0.82
COc1cccc(NC(=O)C2CC(=O)N(c3ccc(Br)cc3)C2)c1 (configuration not stated)
  CBX7 inh z-score = -0.55	CBX7 inh = 0.98
CCc1ccc(NC(=O)c2ccc(NS(=O)(=O)c3c(C)noc3C)cc2)cc1
  CBX7 inh z-score = -0.0093	CBX7 inh = 1

Additional compounds:
The line under a structure holds: CBX7 inh z-score | CBX7 inh
CCN(CC)CCNC(=O)c1[nH]c2ccc(OCc3ccccc3)cc2c1C
  -3.3 | 0.86
COc1ccc(S(=O)(=O)N2CC=C(C(=O)Nc3nc4ccc(C)cc4s3)CC2)cc1
  -1.1 | 0.98
Cc1ccc(-c2nc(-c3ccc(Cl)cc3)no2)cc1C
  1.1 | 1.1
COc1ccc(CN2CCCCC2C(=O)Nc2ccc(OC)c(OC)c2)cc1OC (configuration not stated)
  -0.29 | 0.95
O=C(CCSc1ccccc1)Nc1sc2c(c1-c1nc3ccccc3s1)CCCC2
  3 | 1.6
CCn1c(=O)c(=O)n(CC)c2cc(S(=O)(=O)NCc3ccc(OC)cc3)ccc21
  1.4 | 1
Cc1ccc(NC(=O)c2oc3ccc(S(=O)(=O)N4CCOCC4)cc3c2C)c(C)c1
  -0.82 | 0.94
CCC(=O)N1c2ccc(S(=O)(=O)NCCc3ccccc3)cc2CC1C (configuration not stated)
  -0.49 | 0.88
COc1ccc(N(C)S(=O)(=O)c2ccc3c(c2)CCC(=O)N3)cc1
  -3.1 | 0.86
CC(NC(=O)CN1C(=O)CC(C)(C)Sc2ccccc21)c1ccccc1 (configuration not stated)
  0.61 | 1
O=C(NCc1ccccc1)c1cc(-c2ccc(Cl)c(Cl)c2)on1
  0.25 | 1
O=C(NCc1ccc(F)cc1)c1nnc(Cc2ccc(F)cc2)o1
  -0.13 | 0.99
Cc1ccc(-c2cc(C(=O)Nc3ccccc3C)c3ccccc3n2)cc1
  0.23 | 1
CCOC(=O)c1cnc2ccc(OCC)cc2c1N1CCN(c2ccccc2OC)CC1
  -0.6* | 0.46*
CN1CCN(c2oc(COc3ccccc3F)nc2C#N)CC1
  0.18 | 1

Exported bar-delimited: entries from further up.
mol | CBX7 inh z-score | CBX7 inh
COc1ccc(N(C)S(=O)(=O)c2ccc3c(c2)CCC(=O)N3)cc1 | -3.1 | 0.86
CC(NC(=O)CN1C(=O)CC(C)(C)Sc2ccccc21)c1ccccc1 (configuration not stated) | 0.61 | 1

Continued:
The line under a structure holds: CBX7 inh z-score | CBX7 inh
CC1CCN(C(=O)Cn2nc(-c3ccc(Cl)cc3)ccc2=O)CC1
  0.028 | 1
Cc1ccc(C2CC(=O)c3cnc(NC(=O)c4ccccc4)nc3C2)cc1 (configuration not stated)
  -0.26 | 0.99
Cc1ccc(C(=O)N2CC(=O)Nc3ccc(F)cc3C2c2ccccc2)cc1 (configuration not stated)
  -0.65 | 0.69
COc1ccccc1NC(=O)c1cn(-c2ccccc2)nc1-c1ccc(OC)c(OC)c1
  0.19 | 1
COc1ccc(CNC(=O)C2=CCN(S(=O)(=O)c3ccc(Br)cc3)CC2)cc1
  -0.13 | 1
COc1ccc(Cl)cc1S(=O)(=O)N1CC(=O)N(CCc2ccccc2)C(=O)C1
  2.5 | 1.1
CCN(CCCNC(=O)c1cc2c(-c3ccc(Cl)cc3)nn(C)c2s1)Cc1ccccc1
  0.71 | 1.2
Cc1cccc(NC(=O)c2cc3c(s2)-c2ccccc2OC3)n1
  5.9 | 1.2
CCOC(CN1C(=O)Cn2cccc2C1C(=O)NC1CCC(C)CC1)OCC (configuration not stated)
  -1.3 | 0.93
Cc1ccc(S(=O)(=O)Nc2ccc3oc4c(c3c2)CCC(C)C4)cc1 (configuration not stated)
  -5.5 | 0.8
Cc1[nH]c2c(ccc3ccccc32)c(=O)c1CN1CCCCC1
  3.1 | 1.2
Cc1ccccc1Nc1c(-c2ccc(F)cc2)nc2cnccn12
  0.88 | 1.1
COc1ccccc1-n1cc(-c2ccccc2)nc1SCC(=O)Nc1ccc(Cl)cc1
  -8.4 | 0.74
CC(=O)N1CCc2cc(S(=O)(=O)NC(C(=O)Nc3cc(C)cc(C)c3)C(C)C)ccc21 (configuration not stated)
  2.2 | 1.1
O=C(CC1Sc2ccccc2NC1=O)NCCc1ccccc1 (configuration not stated)
  2.3 | 1.1

Single values from the results shown.
Entry of CC(=O)N1CCc2cc(S(=O)(=O)NC(C(=O)Nc3cc(C)cc(C)c3)C(C)C)ccc21 (configuration not stated) under CBX7 inh: 1.1
Entry of CC1CCN(C(=O)Cn2nc(-c3ccc(Cl)cc3)ccc2=O)CC1 under CBX7 inh: 1

New compounds follow.
The line under a structure holds: CBX7 inh z-score | CBX7 inh
COc1cc(NS(=O)(=O)c2ccc(NC(=O)c3ccc(Cl)cc3)cc2)ncn1
  -1.3 | 0.92
CCc1nc2ccccc2c(NC(=O)CN2CCOCC2)c1C
  0.18 | 1.1
CCOc1ccc(-c2nc3cc(NC(=O)c4ccc(Cl)cc4)ccc3o2)cc1
  -0.32 | 0.99
CCOc1cc2c(cc1OCC)C(c1ccccc1C(F)(F)F)CC(=O)N2 (configuration not stated)
  1.2 | 1.2
Fc1ccc(-c2nnc3ccc(NCCOC45CCC6CC(CC(C6)C4)C5)nn23)cc1
  -5 | 0.64
COc1ccc(-n2ccnc2SCC(=O)NCCc2ccccc2)cc1
  -0.26 | 0.81
COc1ccc(Nc2ncc(C(=O)Nc3nc4ccccc4s3)c3ccccc23)cc1
  0.8 | 1
CC1(C(=O)O)NC(c2ccccc2O)C2C(=O)N(Cc3ccccc3)C(=O)C21 (configuration not stated)
  1.2 | 1.2
COc1ccc(-c2csc(Nc3cc(Cl)ccc3OC)n2)cc1
  -5.5 | 0.84
Cc1cccc(C)c1NC(=O)c1cc(-c2cccc(Br)c2)nc2ccccc12
  -0.13 | 0.96
Cc1oc(-c2ccc(Cl)cc2)nc1CN1CCCC(C(=O)NCCCN2CCCC2=O)C1 (configuration not stated)
  1.6 | 1.1
COc1cc2c(cc1OC)C(c1ccc(Br)cc1)CC(=O)N2 (configuration not stated)
  -1.8 | 0.86
CCOC(=O)N1CCc2c(sc(NCc3cccc(F)c3)c2C(=O)Nc2ccc(OC)cc2)C1
  -3.1 | 0.8
O=S(=O)(CCc1nc2ccccc2[nH]1)c1ccc(Cl)cc1
  1.8 | 1
COc1ccccc1NC(=O)Cn1cnc2sc(C(=O)NC3CCCCC3)c(C)c2c1=O
  2 | 1.2
COc1ccc(N2C(=O)CCC(C(=O)Nc3ccccc3OC)C2c2ccc(F)cc2)cc1 (configuration not stated)
  2.9 | 1.2
COCCCNC(=O)C1CCN(C(=O)c2cc3sccc3n2Cc2ccc(F)cc2)CC1
  0.83 | 1
COc1ccc(Cn2c(CCC(=O)Nc3ccc4c(c3)OCO4)nc3cccnc32)cc1
  -2.6 | 0.86
O=C(Nc1cccc(-c2nc3ccccc3o2)c1)c1cccc(F)c1
  -0.57 | 0.86
CCc1noc(C)c1C(=O)Nc1nnc(C2CC2)s1
  0.74 | 1
CCOc1ccc2nc(C)cc(Nc3cccc(Cl)c3)c2c1
  0.2 | 1
O=C(NCCc1nc2ccccc2n1Cc1ccccc1F)c1ccc(F)cc1
  -1.5 | 0.9
COc1ccccc1C(CCNCc1ccc2c(c1)OCO2)c1ccc2c(c1)OCO2 (configuration not stated)
  -9.5 | 0.79
CN1CCN(CCCNC(=O)C2C3C=CC4(CN(Cc5ccccc5Cl)C(=O)C24)O3)CC1 (configuration not stated)
  1.2 | 1
Cc1nc2c(C(=O)NC3CCCCC3C)cnn2c(C)c1Cc1ccc(F)cc1Cl (configuration not stated)
  -0.95 | 0.9
FC(F)(F)c1cc(-c2ccccc2)nc(N2CCOCC2)n1
  2.8 | 1.3
CCCN1Cc2cccc(C(=O)Nc3ccc(-c4nc5ccccc5[nH]4)cc3)c2C1=O
  0.83 | 1.1
O=C(CSc1nnnn1-c1ccc(C(=O)O)cc1)Nc1ccc(F)cc1
  0.39 | 1
Cc1cc2nc(-c3ccc(NC(=O)c4ccc(Cl)cc4Cl)cc3)oc2cc1C
  0.25 | 1
Cc1cc(C(=O)Nc2ccc(OC(F)(F)F)cc2)on1
  -0.62 | 0.97
O=C1CC(c2ccccc2)Cc2nc(N3CCCC3)ncc21 (configuration not stated)
  -2.5 | 0.79
Cc1ccccc1-n1c(/C=C/c2c(C)n(C)c3ccccc23)nc2ccccc2c1=O
  -0.5 | 0.95
CCN1CCN(c2ccc3nnc(-c4ccc(F)cc4)n3n2)CC1
  -0.015 | 1
Cc1onc(-c2c(Cl)cccc2Cl)c1C(=O)NCCc1ccccc1
  -0.99 | 0.96
CC1CCC(NC(=O)C2CC(=O)Nc3ccccc32)CC1 (configuration not stated)
  -0.33 | 0.99
Cc1ccc(NC2c3ccccc3C(=O)N2Cc2ccccc2)cc1 (configuration not stated)
  -1.6 | 0.89
O=C(Nc1ccc(F)cc1)Nc1nnc(N2CCCCC2)s1
  1.5 | 1.1
O=C(O)c1c[nH]n2c(=O)cc(CSc3ccc(Cl)cc3)nc12
  -0.29 | 0.99
COc1ccc(NC(=O)NCCN2CCN(c3ccccc3F)CC2)c(OC)c1
  0.026 | 1
Cc1cccc(NC(=O)CSc2ccc3nnc(-c4ccccc4)n3n2)c1
  0.0012 | 1
CC(C)=CCC/C(C)=C\CC/C(C)=C/COc1ccc2ccc(=O)oc2c1
  9.9 | 1.7
Cc1ccc(-n2nc3c(c2NC(=O)c2ccc4c(c2)OCO4)CS(=O)(=O)C3)cc1
  0.75 | 1.1
FC(F)(F)c1ccc(-c2noc(-c3cccs3)n2)cc1
  4.9 | 1.4
COCCn1c(=O)[nH]c2cc(C(=O)NCCc3ccc(OC)c(OC)c3)ccc2c1=O
  0.63 | 1
Cc1ccc(-n2nc(C)c3c(C)c(CCC(=O)NCCCN4CCCC4)c(C)nc32)cc1
  2.8 | 1.4
Cn1c(COc2cccc3cccnc23)nnc1SCC(=O)O
  -0.41 | 0.98
O=C(Nc1ccc(OC(F)(F)F)cc1)C1CCN(S(=O)(=O)c2cnc[nH]2)CC1
  -0.13 | 0.99
CCN(CC)c1cc(C)c2cc(NC(=O)Cc3ccc(Cl)cc3)ccc2n1
  2.1 | 1.2
Cc1cc(=O)oc2c1ccc1occ(Nc3cccc(O)c3)c12
  1.6 | 1
CCOC(=O)c1nnn(-c2nonc2N)c1CN1CCC(=O)CC1
  -0.16 | 0.99

Screens: PubChem, several laboratories

Some of the compounds tested; count on the stated rates, not on these rows.
